HCMV NEC inh: inhibitors of HCMV UL50-UL53 nuclear egress complex interaction | 190,000 tested, 0.15% active | HTRF UL50-UL53 interaction, normalized percent inhibition | inhibition, % (test concentration not listed);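 active = both replicates at 50% or more, plus weaker picks with an unusually low signal ratio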;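 note: stock transfer was 100 nL into about 20 µL; 0% = negative control wells and 100% = wells with untagged competitor protein; inactives centre near -12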
GIV-Gai inh: GIV-Galpha-i interaction inhibition; 210,000 tested, 0.42% active; Galpha-i3/FITC-GIV peptide fluorescence polarization, 90 min; active compounds read low; scaled: aluminum fluoride 0%, vehicle 100%; percent of control (FP), % (no concentration beside the values);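 active = replicate mean at 85% of control or lower, very high polarization wells dropped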;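 note: wells of about 15 µL received 100 nL stock; the first replicate is given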
Target sequence (P08753 whole entry, looked up): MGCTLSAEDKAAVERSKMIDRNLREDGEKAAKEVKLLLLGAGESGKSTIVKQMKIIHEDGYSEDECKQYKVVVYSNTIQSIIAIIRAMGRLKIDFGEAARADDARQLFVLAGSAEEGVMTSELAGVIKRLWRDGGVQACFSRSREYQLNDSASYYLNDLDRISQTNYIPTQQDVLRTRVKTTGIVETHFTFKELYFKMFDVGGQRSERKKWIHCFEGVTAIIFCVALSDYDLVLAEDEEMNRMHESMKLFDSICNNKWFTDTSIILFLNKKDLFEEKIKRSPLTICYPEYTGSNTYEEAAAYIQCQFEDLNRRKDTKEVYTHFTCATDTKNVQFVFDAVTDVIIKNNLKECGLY
Sa growth inh: S. aureus growth inhibition. AID 720641. relative growth, % (no concentration beside the values). S. aureus RN4220 growth, OD600, 20 h, 42 °C; active compounds read low. 170,000 tested, 0.53% active;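 active = growth at 42 °C up to 50% and 20 or more points under that at 30 °C, or under 10% at both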;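 note: 300 nL library stock went into each well; scaled to the means of positive and negative controls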
Sa growth inh second temp: also measured in Sa growth inh; calls as there; relative growth, %; measured here: growth at 30 °C;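 optical density after 20 h as mean of two plates; 100% = untreated growth and lower means inhibition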
* marks the source's active call; other numbers are inactive results; · = no result given; & = joins results of further samples; ! = not confirmed by another sample.

Sample of the layout (13 entries):
SMILES	HCMV NEC inh	GIV-Gai inh	Sa growth inh	Sa growth inh second temp
COc1ccc(C(=O)NCCCCN2CCN(c3ncccc3C(F)(F)F)CC2)cc1	-12	101	98	95
O=C(O)CCNc1ccc(Cl)cn1	6	104	88	109
CCCCCc1nnc(NC(=O)c2cccc(S(=O)(=O)N3CCCC3)c2)s1	10	·	101	86
Cc1nn(-c2ccccc2)c(C)c1P(=Nc1ccccc1C(=O)O)(N1CCOCC1)N1CCOCC1	-12	·	100	87
Cc1nc2sc(C(=O)Nc3ccc(Br)cc3)c(N)c2c(C)c1C	-3	104	·	·
O=C(CC1NCCNC1=O)OC1CCCCC1 (stereo unspecified)	19	103	·	·
COc1ccc(C2CC(=O)N(c3ccc(C(C)C)cc3)C(=O)C2)cc1OC	-39	102	·	·
N#Cc1cnn(-c2ccc(F)c(Cl)c2)c1N	-24	108	97	87
OCc1cc2c(cc1Br)OCO2	1	97	·	·
Cc1c(C(=O)NCc2ccco2)oc2c1C(O)CC(C)(C)C2 (stereo unspecified)	-29	103	101	104
O=C(CSc1nnc2ccc3ccccc3n12)NCC1CCCO1 (stereo unspecified)	·	100	119	87
N#CCCS(=O)(=O)c1ccc(N)cc1	-9	·	92	84
Cc1ccc(N2C(=O)CC(Nc3ccc(S(=O)(=O)N4CCCC4)cc3)C2=O)c(C)c1 (stereo unspecified)	-1	·	90	96

This part in full, previewed entries included:
SMILES	HCMV NEC inh	GIV-Gai inh	Sa growth inh	Sa growth inh second temp
COc1ccc(C(=O)NCCCCN2CCN(c3ncccc3C(F)(F)F)CC2)cc1	-12	101	98	95
O=C(O)CCNc1ccc(Cl)cn1	6	104	88	109
CCCCCc1nnc(NC(=O)c2cccc(S(=O)(=O)N3CCCC3)c2)s1	10	·	101	86
Cc1nn(-c2ccccc2)c(C)c1P(=Nc1ccccc1C(=O)O)(N1CCOCC1)N1CCOCC1	-12	·	100	87
Cc1nc2sc(C(=O)Nc3ccc(Br)cc3)c(N)c2c(C)c1C	-3	104	·	·
O=C(CC1NCCNC1=O)OC1CCCCC1 (stereo unspecified)	19	103	·	·
COc1ccc(C2CC(=O)N(c3ccc(C(C)C)cc3)C(=O)C2)cc1OC	-39	102	·	·
N#Cc1cnn(-c2ccc(F)c(Cl)c2)c1N	-24	108	97	87
OCc1cc2c(cc1Br)OCO2	1	97	·	·
Cc1c(C(=O)NCc2ccco2)oc2c1C(O)CC(C)(C)C2 (stereo unspecified)	-29	103	101	104
O=C(CSc1nnc2ccc3ccccc3n12)NCC1CCCO1 (stereo unspecified)	·	100	119	87
N#CCCS(=O)(=O)c1ccc(N)cc1	-9	·	92	84
Cc1ccc(N2C(=O)CC(Nc3ccc(S(=O)(=O)N4CCCC4)cc3)C2=O)c(C)c1 (stereo unspecified)	-1	·	90	96
CC(O)/C=C/c1ccc2ccccc2n1 (stereo unspecified)	11	103	103	95
COCCCn1c(=N)c(C(=O)NCc2cccnc2)cc2c(=O)n3cc(C)ccc3nc21	-110	104	93	90
CCOc1ccccc1NC(=O)Cn1ncc2c([nH]c3ccccc32)c1=O	·	106	115	103
COc1ccc(N(Cc2ccccc2)C(=O)c2nc(SC)ncc2Cl)cc1	-2	101	103	88
Cc1nn(-c2ccccc2)c2sc(C(=O)O)cc12	-18&-7	101	123	80
CC1=C(C(=O)OCc2ccc(C)cc2)C(c2cccc(Br)c2)NC(=O)N1 (stereo unspecified)	2	102	·	·
Cc1ccc(S(=O)(=O)c2nc(-c3ccccc3)oc2N2CCN(c3ccccc3)CC2)cc1	-1	106	102	92
O=C(CCCn1nc(-c2ccccc2)c2cc(Cl)ccc21)NCCc1ccccc1	·	100	75	70
CCOc1ccc2nc(NC(=O)c3cc(=O)c4cc(C)cc(C)c4o3)sc2c1	-28	101	98	84
Cc1ccc(NC(=O)CN(C)C(=O)Cn2c(=O)oc3ccccc32)cc1	-5	·	96	92
Cc1cc(C)cc(-n2c(SCC(=O)Nc3ccccc3)nc3c(oc4ccccc43)c2=O)c1	3	111	104	93
COc1ccc(NC(=O)NCCc2nc3cccnc3n2-c2ccccc2)c(OC)c1	-10	110	·	·
O=C(/C(=C\c1cccs1)c1ccsc1)N1CCOCC1	-14	112	107	94
Cc1cc(Oc2cc(C#N)c3ccccc3n2)ccc1Cl	-4	·	104	92
OCC1OC(Nc2ccccc2)CC1O (stereo unspecified)	7	·	91	104
C/C(=N\N1C(=O)c2ccccc2NC12CCCCC2)c1ccccc1O	·	100	95	80
COC(=O)c1c(-c2ccc(Cl)cc2)noc1N1CCN(c2ccccc2F)CC1	-2&-18	71*!	87	96
COc1ccc(COC(=O)C2=C(C)NC3=C(C(=O)CCC3)C2c2cc(OC)c(OC)c(OC)c2)cc1 (stereo unspecified)	-10	113	·	·
CCOC(=O)C1=C(NN(C)c2ccc(OC)cc2)CN(C(=O)c2ccccc2)C1	-17	·	92	85
Cc1nn(C)c(C)c1Nc1n[nH]c(N)n1	-28	106	111	93
CCOC(=O)c1c(C)[nH]c(C)c1S(=O)(=O)N1CCCC(C(=O)Nc2ccc(C)cn2)C1 (stereo unspecified)	-6	111&106	113	82
CCCCn1c(N)c(N(C(=O)c2ccc(N3CCCC3=O)cc2)C2CCCC2)c(=O)[nH]c1=O	-27	·	81	88
CSc1ncc(Cl)c(C(=O)Nc2cc(C(F)(F)F)ccc2Cl)n1	-16	101	100	86
O=C(O)CCn1nc(-c2ccc(F)cc2)ccc1=O	-2	107	98	96
O=c1c(N2CCN(c3ccccc3)CC2)csc2ccc(Cl)cc12	·	106	102	67
Cc1ccc(SCC(=O)N2CCOCC2)cc1	-18	102	106	92
CC1=C(C(=O)Nc2cccc(C(F)(F)F)c2)C(c2ccccc2)n2ncnc2N1 (stereo unspecified)	·	102	80	82
O=S(=O)(NCCn1c(-c2ccccc2)nc2cccnc21)c1ccc(Br)cc1	0	111	·	·
CCOC(=O)C1CCCN(C(=S)NC2CCCC2)C1 (stereo unspecified)	14	104	104	99
CN(C)C(=S)Sc1c(O)c2ccccc2n(C)c1=O	-13	98	42	17
CCCCc1ccc(C(=O)On2c(-c3ccc(Br)cc3)nc3ccccc3c2=O)cc1	-8	106	·	·
COc1ccc(OC)c2c1cc1n2CC(C)(C(=O)NC2CCCC2)N(CC2CCCO2)C1=O (stereo unspecified)	-17	101	·	·
CC(=S)N1CCN(C(C)=S)CC1	-2	·	104	87
Cc1cc(F)ccc1NC(=O)c1c(C)oc2c1C1=NCCN1C=N2	·	107	81	98
CC1=C(C(=O)Nc2ccc(C)cc2C)C(C(C)C)n2nc(SCc3ccccc3Cl)nc2N1 (stereo unspecified)	-5	103	95	91
CCOc1ccc(-n2c(SCC(=O)N3CCc4ccccc43)nc3c([nH]c4ccccc43)c2=O)cc1	·	99	110	84
Cc1cccc(OCC(=O)Nc2ccccc2C(=O)OCc2cc(=O)n3nc(C4CC4)sc3n2)c1	·	100	86	93
CC(C)(C)C(=O)Nc1ncnc2sc3c(c12)CCCC3	6	108	92	98
Cn1c(C(=O)O)c(CC(=O)N2CCCC2)c2ccccc21	3	97	97	91
CN=c1scc(-c2cc(OC)ccc2OC)n1/N=C/c1ccco1	-43	·	95	76
Cc1nc2ccc(NC(=O)CS(=O)(=O)c3ccc(F)cc3)cc2s1	16	110	113	97
C/C(=N\OC(=O)c1ccc(S(=O)(=O)N2CCCC(C)C2)cc1)c1ccc(C)o1 (stereo unspecified)	-19	·	96	97
Cc1ccccc1NC(=O)c1cn(-c2ccccc2)nc1-c1ccccc1	-1&-11	106&100	110	93
OCCCNCc1ccccc1Cl	-13	100	128	94
COc1cc(OC)c(N(C)C(=O)c2ccc3c(=O)n4c(nc3c2)CCCCC4)cc1Cl	·	100	94	88
O=C(c1ccc(-c2ccc(F)cc2)o1)N1CCC(c2ccccc2)CC1	15	109	71	68
Cc1ccccc1-c1nn2c(=O)cc(N3CCN(S(=O)(=O)c4ccccc4C)CC3)nc2s1	-2	102	·	·

The results go on:
SMILES	HCMV NEC inh	GIV-Gai inh	Sa growth inh	Sa growth inh second temp
CCOC(=O)c1ccc(N2CCN(c3cc(C)ccc3C)CC2)c(NC(=O)Nc2ccc(Cl)cc2)c1	·	102	94	75
CS(=O)(=O)CS(=O)(=O)C1=C(N2CCOCC2)C2CCN1CC2	·	98	84	96
O=C(NC1CC1)c1cncc(NS(=O)(=O)c2ccccc2)c1	-25	99	·	·
CCCn1c(=N)c(C(=O)NCc2cccnc2)cc2c(=O)n3cc(C)ccc3nc21	-21	110	105	95
O=C(CSC1=NCCS1)NC(=O)c1ccccc1	-55	·	84	69
CCOc1ccc(NC(=O)NS(=O)(=O)c2ccc(C)cc2)cc1	·	98	99	99
COc1cc(-c2[nH]nc3c2C(c2ccccc2Cl)C(C#N)=C(N)O3)cc(OC)c1OC (stereo unspecified)	-14	103	·	·
CNC(=O)Cc1ccc(-n2c(=O)c3ccccc3n(CC(=O)Nc3ccccc3Cl)c2=O)cc1	-15	106	·	·
CCCn1c(=O)c2ccccc2n2c(SCC(=O)NC3CCCCC3)nnc12	-11	101	·	·
Cc1ccc(N2C(=O)c3nccnc3C2=O)cc1	24	106	·	·
Cc1ccc(NC(=O)Cn2nc(-c3ccccc3)nc(Cc3ccc(Cl)cc3)c2=O)cc1	·	105	109	91
COCCNC(=O)Cn1nc(N2CCN(c3ccccc3OC)CC2)ccc1=O	-43	102&101	97	91
CN1CCN(Cc2nnnn2CC2CCCO2)CC1 (stereo unspecified)	0	100	113	95
CCOc1ccc(-c2noc(-c3oc4ccc(S(=O)(=O)Nc5ccc(OC)cc5)cc4c3C)n2)cc1	-1	102	·	·
NC(=O)Cn1c(SCCOc2ccc(Cl)cc2)nc2ccccc21	-4	104	·	·
Cc1ccc(N2CCN(Cc3sccc3C)CC2)cc1	27	109	95	115
CCc1c(CN2CCN(c3ccccc3F)CC2)csc1C	·	104	83	69
C=CCOC(=O)c1sc(NC(=O)c2snnc2C)nc1C	-15	106	·	·
CCCNC(=O)C1=C(C)C(=O)OC12CCN(CC)CC2	-33	106	89	87
Cn1cnc(S(=O)(=O)Nc2ccccc2F)c1	10	106	·	·
O=C(c1ccc(C(=O)N2CCc3ccccc3C2)cc1)N1CCc2ccccc2C1	-8	·	103	89
O=C(CN1N=NC2C(=O)N(c3ccc(F)c(F)c3)C(=O)C21)Nc1ccccc1Cl (stereo unspecified)	-14	100	·	·
Cc1cc(OC(=O)c2ccccc2)n(CCC#N)n1	-17	·	94	80
COC(=O)c1cc2oc3ccccc3c2n1CC(=O)Nc1cc(OC)cc(OC)c1	-5	97	93	85
CC(C(=O)Nc1ccc(S(=O)(=O)N2CCCCC2)cc1)N1CCCCCC1 (stereo unspecified)	-39	·	74	88
Cc1nc(Nc2ccccc2)sc1C(=O)c1cc2ccccc2s1	-26	97	90	83
COC(C)n1cc(Br)c(=O)[nH]c1=O (stereo unspecified)	-4	·	99	93
O=C(Cc1ccccc1)N1CCCc2ccccc21	-15	·	93	91
O=C(CNC(=O)C1CCCCC1)OCc1cc(=O)n2c(n1)sc1ccccc12	-31	·	104	89
CCN(CC)CCNC(=O)CCn1cnc2oc(C)c(C)c2c1=O	-15	105	·	·
CCOC(=O)c1c(-c2ccccc2)oc2c1cc(OC(=O)c1cc([N+](=O)[O-])cc([N+](=O)[O-])c1)c1ccccc12	-7	103	·	·
CCCOc1ccc(Cn2cnc3ccccc32)cc1	-34	102	64	40
O=C(CCS(=O)(=O)c1ccc(Br)cc1)N1CC(=O)N(CCc2ccccc2)C(=O)C1	·	105	90	94
COc1cc(/C=N/OCC(=O)NC2CC2)cc(Cl)c1OC	-15	·	75	85
Cc1cc(-c2csc(N)n2)c(C)n1-c1ccc2c(c1)OCO2	-16	·	103	78
CCN(CC)C(=O)COCc1cc(-c2ccco2)on1	-26	112	97	100
CCC1CCCCN1C(=O)CSCc1ccco1 (stereo unspecified)	-19	·	120	82
Cn1c(=O)c2sccc2n2c(CCCC(=O)NC3CCN(Cc4ccccc4)CC3)nnc12	-25	104	108	97
Nn1c(SCC(=O)NC2CCCc3ccccc32)nnc1-c1cccs1 (stereo unspecified)	-5	·	101	96
CCOC(=O)N1CCN(S(=O)(=O)c2ccc(C(=O)Nc3ccc4c(c3)C(=O)NC4=O)cc2)CC1	-15	101	84	84
COc1ccc(-c2noc(CNC(=O)C3CCC(=O)N3S(=O)(=O)c3ccc(C)cc3)n2)cc1 (stereo unspecified)	0	104	·	·
CCCNC(=O)c1cc2nc(-c3ccc(Br)cc3)cc(C(F)(F)F)n2n1	-48	103	115	87
O=C(Nc1nnc(C2CC2)s1)c1cccc(S(=O)(=O)N2CC(c3ccccc3)CC2=O)c1 (stereo unspecified)	8	106	101	93
CCCCCC1C/C(=N/OC(C)=O)C=C(C)C1C(=O)OC (stereo unspecified)	-7	102	102	95
N#Cc1ccccc1Cn1c(=O)n(-c2ccc(F)c(Cl)c2)c(=O)c2sccc21	10	105	91	87
O=C(COc1ccccc1F)OCC(=O)N1CCCCC1	-6	·	82	92
OC1CCN(CC(O)COc2ccc(Cl)c(Cl)c2)CC1 (stereo unspecified)	·	99	101	82
CCOc1ccccc1N1CCN(S(=O)(=O)c2cccs2)CC1	-25	97	92	78
O=C(Cc1ccsc1)NCCc1ccc2c(c1)OCCO2	-20	·	74	85
O=C(NCc1ccccc1)c1ccc2nc(-c3cccs3)c(-c3cccs3)nc2c1	·	103	90	88
